Source: PubChem BioAssay
Cruzain Triton: blocks cruzain activity in presence of Triton detergent; P25779; purified cruzain, Z-FR-AMC fluorescence, 0.01% Triton; Potency, µM, inactives show max response, negative = inhibition, hits mostly inhibitors; 200,000 tested, 0.43% active;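 also: plate controls were neutral wells for no effect and buffer without enzyme for full effect; nearly all actives have a fitted effect of over 40% in size; top concentration of the series not given in the record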
Target sequence (P25779 123-467 limits assumed): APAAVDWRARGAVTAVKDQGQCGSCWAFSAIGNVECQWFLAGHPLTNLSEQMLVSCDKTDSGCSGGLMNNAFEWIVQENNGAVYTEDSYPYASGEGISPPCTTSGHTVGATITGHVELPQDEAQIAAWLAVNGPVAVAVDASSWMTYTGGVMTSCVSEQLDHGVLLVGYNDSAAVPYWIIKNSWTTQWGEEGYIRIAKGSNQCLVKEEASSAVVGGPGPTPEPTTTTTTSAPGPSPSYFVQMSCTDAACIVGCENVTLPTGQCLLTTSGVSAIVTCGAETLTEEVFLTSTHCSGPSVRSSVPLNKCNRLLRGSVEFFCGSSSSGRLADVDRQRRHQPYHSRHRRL
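Compounds were screened in titration against cruzain (1.5 nM) with 0.01% Triton X-100 to counter colloidal aggregation. Activity was the AMC fluorescence increase over 60 s after adding 2 uM Z-FR-AMC at pH 5.5.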
RE007 growth inh: less growth of the S. pombe RE007 Vpr strain; S. pombe RE007 Vpr strain, BacTiter-Glo ATP luminescence, 24 h; control for the full effect not named in the record; Potency, µM (titrated, usually from 92.2 µM), without a hit: at the top dose activity change, negative = less growth; 360,000 tested, 0.21% active; AID 651644; active = well fitted falling curve with a large enough effect; inconclusive = small, poorly fitted or top-dose-only effect; inactive = no such curve, though single readings can be large or run the other way;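 also: % is scaled to controls: 0 for no effect and ±100 for the full control effect; nearly all actives have a fitted effect of over 50% in size; the assay follows cell death caused by Vpr and the record does not say whether a fall means rescue or toxicity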
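Fission yeast RE007 carrying one integrated HIV-1 vpr copy, seeded at OD 0.01 in PMG+AL medium with 23 nL pinned compound. Grown 24 h at 30 degrees; viability read by BacTiter-Glo luminescence after 5 min.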
Cruzain inh noDet: inhibitors of Trypanosoma cruzi cruzain without detergent; 200,000 tested, 2.3% active; AID 1476; Potency, µM, inactives show max response, negative = inhibition, usual class: inhibitors; P25779; purified cruzain, Z-FR-AMC fluorescence, no detergent;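 also: plate controls were enzyme without inhibitor for no effect and buffer without enzyme for full effect; nearly all actives have a fitted effect of over 40% in size; top concentration of the series not given in the record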
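Detergent-free condition (0.00005% Triton X-100) in acetate buffer pH 5.5 with DTT. 1.5 nM enzyme and compound were pre-mixed 15 min, then 2 uM Z-FR-AMC substrate added; reaction progress from fluorescence change between first and third reads (60 s).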
Marburg entry inh: blocks Marburg virus binding to or entry into cells | Marburg virus pseudotyped entry inhibition, cell reporter; control for the full effect not named in the record; about a third of the inactives were read at about 46 µM | Potency, µM (highest dose often 37.8 µM), for the others: top-dose activity change, negative = inhibition, hits mostly inhibitors | 300,000 tested, 1.8% active | AID 540276; active = well fitted inhibition curve with a large enough effect; inconclusive = small, poorly fitted or top-dose-only effect, or effect the other way; inactive = flat fitted curve, though single readings scatter; tested in HEK293 cells; about a fifth of its hits are not listed in these tables; also: % is scaled to controls: 0 for no effect and ±100 for the full control effect; luciferase read-out
NS1 inh: influenza NS1 inhibition | S. cerevisiae slowed by influenza A NS1, growth recovery by OD600 | Potency, µM (doses to about 46.1 µM), inactives show at the highest dose activity, positive = more growth | 270,000 tested, 0.4% active; active means well fitted rising curve with a large enough effect; inconclusive means small, poorly fitted or top-dose-only effect; inactive means no such curve, though single readings can be large or run the other way; also: nearly all actives have a fitted effect of over 50% in size
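A cell-based growth assay was used: compounds that relieve NS1-induced slow growth of budding yeast raise OD600. Assay medium was yeast nitrogen base with ammonium sulphate and -URA supplement, pH 6.0, with 2% galactose.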
SARS PLpro yeast: inhibitors of SARS-CoV papain-like protease in yeast; S. cerevisiae expressing SARS-CoV PLpro, growth rescue; control for the full effect not named in the record; Potency, µM (titrated, usually from 32.9 µM), without a hit: at the highest dose activity, positive = growth rescue; 330,000 tested, 0.19% active; active means well fitted rising curve with a large enough effect; inconclusive means small, poorly fitted or top-dose-only effect; inactive means no such curve, though single readings can be large or run the other way; also: 0% is about no effect; nearly all actives have a fitted effect of over 55% in size; growth read by luminescence after 48 h
Lassa entry inh: Lassa virus entry inhibition; Lassa virus pseudotype entry inhibition, cell reporter; control for the full effect not named in the record; Potency, µM (series often up to 37.9 µM), for inactives: top-dose activity change, negative = inhibition, hits mostly inhibitors; 300,000 tested, 1.2% active; AID 540256; active means well fitted inhibition curve with a large enough effect; inconclusive means small, poorly fitted or top-dose-only effect, or effect the other way; inactive means flat fitted curve, though single readings scatter; tested in HEK293 cells; also: % is scaled to controls: 0 for no effect and ±100 for the full control effect; nearly all actives have a fitted effect of over 50% in size; luciferase read-out
StopGo reporter: FMDV 2A StopGo reporter, luciferase signal. human cells with a luciferase reporter of 2A StopGo recoding; control for the full effect not named in the record. 410,000 tested, 1.2% active. AID 1159524. Potency, µM (top dose mostly 57.9 µM), without a hit: at the top dose signal change, negative = less light; active = well fitted falling curve with a large enough effect; inconclusive = small, poorly fitted or top-dose-only effect; inactive = no such curve, though single readings can be large or run the other way; tested in HEK293T cells; also: % is scaled to controls: 0 for no effect and ±100 for the full control effect; nearly all actives have a fitted effect of over 45% in size; luciferase light after 4 h
Starred values were filed as active, the others as inactive; ? = inconclusive; . = no result given; & = joins results of further samples; [ ] = dose if it differs, or a comment. Unless noted, calls follow the shape of the dose curve; as a rule, active = well fitted curve in the direction sought with a large enough effect; inconclusive = small, poorly fitted or top-dose-only effect, or another doubt; inactive = no such curve, though single readings can be large; an effect the other way counts as inactive or inconclusive. Potency is read from the fitted curve at half-maximal effect.

A first look:
#	SMILES	Cruzain Triton	RE007 growth inh	Cruzain inh noDet	Marburg entry inh	NS1 inh	SARS PLpro yeast	Lassa entry inh	StopGo reporter
1	CCOC(=O)c1ccccc1NC(=O)CSc1nc(=O)[nH]c2c1CCC2	1.1%	.	-1%	.	.	.	3%[46.1 µM]	-18%
2	CC(=O)c1ccc(-c2nnc(CCC(=O)N(C)Cc3c(C)nc4ccccn34)o2)s1	.	?	.	16%[46.1 µM]	1%	-1%	?	-11%

This part in full, previewed entries included:
#	SMILES	Cruzain Triton	RE007 growth inh	Cruzain inh noDet	Marburg entry inh	NS1 inh	SARS PLpro yeast	Lassa entry inh	StopGo reporter
1	CCOC(=O)c1ccccc1NC(=O)CSc1nc(=O)[nH]c2c1CCC2	1.1%	.	-1%	.	.	.	3%[46.1 µM]	-18%
2	CC(=O)c1ccc(-c2nnc(CCC(=O)N(C)Cc3c(C)nc4ccccn34)o2)s1	.	?	.	16%[46.1 µM]	1%	-1%	?	-11%
3	CCCCOC(=O)n1c(=O)oc2cc(S(=O)(=O)N3CCCCC3)ccc21	-3.4%	15%	-8%	-5%	-48%	-13%	?	6%
4	CCOc1ccc2c(c1)C(c1ccc(C)cc1)=NNC(c1ccc(C)cc1)=N2	-9.2%	-1%	-26%	?	?	-41%	-21%	43%[activator]
5	Cc1ccc(NC(=O)NC2C(NC(=O)Nc3ccc(C)cc3)N(C)C(=O)N2C)cc1 (stereo not given)	-1.7%	-5%	-14%	16%	3%	10%	-16%	3%
6	COc1ccc(NC(=O)CN2CCN(c3nc(-c4cccc(OC)c4)cs3)CC2)cc1	-6.0%	3%	?	-1%	22%	-23%	4%	-25%
7	O=C(N/N=C\c1ccco1)c1cncc(Br)c1	-11%	.	-6%	6%	-2%	-1%	10%	.
8	NC(=S)N/N=C/c1c(O)ccc2ccccc12	.	-7%	.	.	1%	2%	.	2%
9	CCOc1ccccc1NC(=O)CSc1nccn1Cc1ccc(F)cc1	-3.2%	.	-8%	.	.	.	6%[46.1 µM]	-7%
10	O=C(CCCOc1ccc(Cl)cc1Cl)NCCc1ccccn1	.	-10%	.	13%[46.1 µM]	-7%	1%	-24%	?

Some values from the list.
no. 10 @ Lassa entry inh = -24%
no. 3 @ StopGo reporter = 6%

5 entries already listed, sorted by length of the SMILES, low to high:
#	SMILES	Cruzain Triton	RE007 growth inh	Cruzain inh noDet	Marburg entry inh	NS1 inh	SARS PLpro yeast	Lassa entry inh	StopGo reporter
8	NC(=S)N/N=C/c1c(O)ccc2ccccc12	.	-7%	.	.	1%	2%	.	2%
7	O=C(N/N=C\c1ccco1)c1cncc(Br)c1	-11%	.	-6%	6%	-2%	-1%	10%	.
9	CCOc1ccccc1NC(=O)CSc1nccn1Cc1ccc(F)cc1	-3.2%	.	-8%	.	.	.	6%[46.1 µM]	-7%
1	CCOC(=O)c1ccccc1NC(=O)CSc1nc(=O)[nH]c2c1CCC2	1.1%	.	-1%	.	.	.	3%[46.1 µM]	-18%
4	CCOc1ccc2c(c1)C(c1ccc(C)cc1)=NNC(c1ccc(C)cc1)=N2	-9.2%	-1%	-26%	?	?	-41%	-21%	43%[activator]

(cont.)
#	SMILES	Cruzain Triton	RE007 growth inh	Cruzain inh noDet	Marburg entry inh	NS1 inh	SARS PLpro yeast	Lassa entry inh	StopGo reporter
11	CCN(C(=O)CSc1nnc2c3ccccc3n(CC)c2n1)C1CCS(=O)(=O)C1 (stereo not given)	-8.3%	-2%	-1%	12%	?	24%	-10%	-21%
12	COc1ccc(S(=O)(=O)n2c(CCN3CCOCC3)nc3ccccc32)cc1	-3.0%	4%	-4%	-3%	-12%	4%	-3%	9%
13	Nc1nccc(-c2ccc(-n3cnc4ccccc43)cc2)n1	.	?	.	?	-5%	-7%	22%	14%
14	COc1cc2c(cc1OC)/C(=C/C(=O)N1CCOCC1)NC(C)(C)C2	-16%	-2%	0%	-1%	?	-3%	-18%	-18%
15	COc1ccc(OC)c(S(=O)(=O)Nc2cccc(-c3ccc4nncn4n3)c2)c1	.	58%	.	?	-9%	0%	-17%[46.1 µM]	45%[activator]
16	COc1ccc(Cn2ccc3nc(C)c(C(=O)NCc4ccc(OC)cc4OC)cc3c2=O)cc1	-0.5%	.	-3%	.	.	.	11%[46.1 µM]	?
17	CN(C)CC(C)(C)CNS(=O)(=O)CC12CCC(CC1=O)C2(C)C (stereo not given)	3.2%	12%	-3%	3%	2%	3%	-1%	32%[activator]
18	COc1cc(OC)c(NS(=O)(=O)c2coc(C(N)=O)c2)cc1Cl	-0.9%	-2%	19%	.	-4%	12%	.	-16%
19	O=C(NCc1ccco1)c1ccccc1Br	3.9%	34%	-7%	11%[46.1 µM]	1%	-2%	0%	9%
20	Cc1csc(SCC(=O)NC(=O)NC(C)(C)C)n1	.	-9%	.	-6%[46.1 µM]	.	5%	-5%	20%
21	CCOC(=O)c1ccc(NC(=O)NCc2c(C)nn(CC)c2C)cc1	.	18%	.	0%	.	-2%	-15%	-15%
22	Cc1ccc(S(=O)(=O)N2CCC(=O)N(C(COCc3cccc(C(F)(F)F)c3)Cc3ccccc3)CC2)cc1 (stereo not given)	-3.4%	3%	2%	?	28%	-9%	?	-13%
23	COc1cc(NC(=O)c2cccc(F)c2)ccc1NC(=O)c1cc2ccccc2o1	0.3%	-10%	-8%	?	2%	2%	?	0%&-25%
24	COc1ccc(-c2csc3ncnc(Nc4cccc(OC)c4)c23)cc1	-1.6%	.	-14%	.	.	.	-18%[46.1 µM]	0%
25	CCCc1cc(=O)oc2cc(C)cc(OCC(=O)NCC(O)c3ccccc3)c12 (stereo not given)	.	-7%	.	.	-3%	16%	.	-7%
26	COc1ccc(CCNC(=O)c2cccc(-n3cnnn3)c2)cc1	.	16%	.	1%	.	-4%	5%	?
27	O=C(Cn1cc([N+](=O)[O-])ccc1=O)NCc1ccc(Cl)cc1Cl	.	-4%	.	15%[46.1 µM]	-2%	-4%	18%[46.1 µM]	2%
28	NC(=O)c1c(NC(=O)C2CC=CCC2C(=O)O)sc2c1CCCCC2 (stereo not given)	.	-14%	.	?	0%	-3%	1%[46.1 µM]	7%
29	Cc1ccc(C(=O)C[n+]2cccc3cc(C)ccc32)cc1	.	-3%	.	?	.	8%	-17%	-14%
30	Cc1nn(CC(=O)NCCCN2C(C)CCCC2C)c(=O)c2cc3occc3n12 (stereo not given)	.	11%	.	-23%[46.1 µM]	7%	-5%	?	-1%
31	CC(C)CC(NS(=O)(=O)OCC(Cl)(Cl)Cl)c1ccccc1 (stereo not given)	.	?	.	.	-98%	-10%	.	-30%
32	O=C(Nc1ccccc1N(C(=O)c1ccco1)S(=O)(=O)c1cccs1)c1ccco1	4.6%	9%	-9%	?	-67%	2%	-17%	-17%
33	COC(=O)c1cc2sc(C)cc2n1Cc1nc(-c2ccc(C)cc2)oc1C	0.3%	.	-8%	14%[46.1 µM]	.	.	.	0%
34	Cc1nn(C)c2c1c(-c1ccccc1)cc(=O)n2Cc1ccc(Br)cc1F	-1.9%	.	-2%	.	.	.	0%[46.1 µM]	-10%
35	COc1cccc(C2NC(=O)CCC2[N+](=O)[O-])c1 (stereo not given)	.	-1%	.	3%[46.1 µM]	6%	1%	2%[46.1 µM]	1%
36	COc1ccc(/C=C/C(=O)NC(=S)Nc2ccccn2)cc1	.	4%	.	.	-5%	0%	.	68%[activator]
37	CCOC(=O)C1CN(S(C)(=O)=O)c2cc(CC(=O)OC)ccc2O1 (stereo not given)	.	9%	.	-15%[46.1 µM]	.	-2%	-15%	-8%
38	CC(NC(=S)NC1CCC(C(C)(C)C)CC1)c1ccccc1 (stereo not given)	.	16%	.	.	18%	-2%	.	-2%
39	COCCNC(=O)C(c1ccc(C)o1)N(CC1CCCO1)C(=O)Cn1nnc2ccccc21 (stereo not given)	2.9%	-10%	-5%	3%[46.1 µM]	4%	0%	15%	1%
40	CC(C)CC(NS(=O)(=O)c1ccccc1)C(=O)O (stereo not given)	2.0%	6%	-5%	-12%	-13%	2%	-2%	13%
41	CN(Cc1ccccc1)C(=O)c1[nH]cnc1C(=O)NCC(=O)OC(C)(C)C	.	-13%	.	.	2%	-6%	.	-12%
42	CCc1nnc(NC(=O)CN2CCN(Cc3cccc(F)c3)CC2)s1	.	15%	.	2%[46.1 µM]	8%	1%	2%[46.1 µM]	45%[activator]
43	COc1cc(/C=C/C(=O)OCC(=O)c2c(N)n(C)c(=O)n(C)c2=O)ccc1O	.	2%	.	-10%[46.1 µM]	8%	1%	-4%[46.1 µM]	-9%
44	CC(C)(C)OC(=O)N1CCC(CNC(=O)c2ccccc2)CC1	.	36%	.	-15%[46.1 µM]	-1%	-1%	-6%	-5%
45	CN(C)S(=O)(=O)c1ccc(C(=O)NCc2cccs2)cc1	6.1%	4%	4%	9%	0%	0%	?	19%
46	Cc1cnccc1NC(=O)c1cccs1	.	4%	.	-1%	-5%	-2%	3%	-12%
47	CC(C)CC(NC(=O)C1CCCN1C(=O)[C@@H](C)NC(=O)OCc1ccccc1)C(=O)NCC(N)=O (stereo not given in full)	.	25%	.	-1%	-4%	0%	.	-2%
48	Cc1ccc(C2N3CCCN23)cc1 (stereo not given)	.	10%	.	1%[46.1 µM]	3%	3%	-19%[46.1 µM]	1%
49	O=C(O)CS(=O)(=O)c1ccc(Oc2ccc(S(=O)(=O)CC(=O)O)cc2)cc1	5.7%	-9%	9%	15%	0%	2%	16%	?
50	O=C(NCCCn1ccnc1)c1ccc(S(=O)(=O)Nc2ccccc2)cc1	.	-9%	.	0%[46.1 µM]	4%	3%	-3%[46.1 µM]	-15%
51	Cc1nc(SCC(=O)NCCc2ccccc2)c2c(=O)n(C)c(=O)n(C)c2n1	.	10%	.	13%	-1%	1%	-1%	-5%
52	Cn1c(NNC(=O)C(c2ccccc2)c2ccccc2)cc(=O)n(C)c1=O	.	-1%	.	1%[46.1 µM]	.	1%	.	-3%
